NPYLR7 agonist = agonists of mosquito NPYLR7 receptor, primary screen, cell-based, Aedes aegypti, calcium fluorescence, mosquito biting behavior; HEK293T NPYLR7/Galpha15, GCaMP6s calcium fluorescence; AID 1259423, 2018; actives 0.15% (n = 270,000); activation, % at 10 µM; in the data active means activation above about 40%;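 further: 0% = vehicle and 100% = reference agonist at the receptor; some compounds past the cut are filed as inactive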
NPYLR7 agonist max-min = also measured in NPYLR7 agonist; calls as there; activation, %; measured here: Max-Min RFU normalised activation; some inactives read as strong as hits;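 span of the calcium signal over five minutes; 0% = vehicle and 100% = native peptide agonist; compound fluorescence can raise it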
Starred values were filed as active, the others as inactive. This is a subset (hit frequency here may not be typical).

The line under a structure holds: NPYLR7 agonist | NPYLR7 agonist max-min
> COCC(C)NC(=O)c1cncn1-c1ccc(-c2ccc(F)c(F)c2)cc1 (stereo not drawn)
    -14 | -2
> CCCn1cc(C2CCN(C(=O)c3c(Cl)cc(Cl)cc3Cl)CC2)c2ccccc21
    -1 | -2
> Cc1cccc(N2CCC(=NC(N)=S)N2)c1
    -12 | -18
> CC(=O)c1ccc(S(=O)(=O)N2CCC(Cc3ccc(-c4ccccc4)cc3)CC2)cc1
    0 | -7
> Cc1ccc(C)c(NC(=O)Cn2nc(C)c3ccccc3c2=O)c1
    2 | 3
> CC(C)(CNC(=O)c1ccncc1)c1ccc(Br)cc1
    -3 | -5
> Fc1ccc(N2CCCN(Cc3cccs3)CC2)cc1
    2 | -1
> C=C(Cl)CN(CC(=O)NCC1CCOC1)C1CCc2ccccc21 (stereo not drawn)
    -1 | -3
> CCC(C)NC(=O)c1cc(NC(=O)c2cccc(Cl)c2)ccc1N1CCN(c2ccccc2OC)CC1 (stereo not drawn)
    13 | 10
> O=C(O)CNC(=O)CC12CC3CC(CC(C3)C1)C2
    4 | 11
> Cc1ccc(Nc2nnc(Cc3ccccc3)c(=O)[nH]2)cc1C
    -1 | -1
> CCn1cc(NC(=O)/C=C(/c2ccccc2)C(F)(F)F)cn1
    5 | 7
> O=C(c1cnn2c1NC(c1ccc3c(c1)OCO3)CC2C(F)(F)F)N1CCCCCC1 (stereo not drawn)
    2 | 0
> CC(C)CCn1c(N(C)Cc2ccccc2)nc2c1c(=O)n(C)c(=O)n2C
    -7 | 5
> Cc1sc2nc(C(C)N3CCN(c4nccs4)CC3)nc(N)c2c1C (stereo not drawn)
    15 | 12
> COC(=O)c1c(NC(=O)c2c(-c3c(Cl)cccc3Cl)noc2C)sc2c1CCCC2
    10 | 9
> CCNCc1nccn1Cc1ccc(Cl)cc1Cl
    -18 | -11
> Cc1nn(-c2nc3ccccc3[nH]2)c2c1C(=O)CC(c1ccco1)C2 (stereo not drawn)
    0 | 0
> CC(C)NC(=O)c1ccc(Nc2c(Oc3ccccc3)cnn(-c3ccccc3)c2=O)cc1
    10 | 9
> COc1cc(-c2cc3ccccn3c2)cc(OC)c1OC
    0 | -3
> Nc1c(C(=O)NCc2cccs2)c2nc3ccccc3nc2n1/N=C\c1cccc(O)c1
    10 | -2
> O=C(CCc1cccnc1)N1CCOC(COc2cccc(C(F)(F)F)c2)C1 (stereo not drawn)
    9 | 25
> COc1ccc2[nH]c3c(c2c1)CCN(C(=O)c1cc(F)cc(F)c1)C3c1ccccc1OC (stereo not drawn)
    4 | 1
> CNC(=O)Cn1cc(NC(=O)/C=C(/C)CCc2ccccc2)cn1
    11 | 10
> CCN(CC)C(C)CNS(=O)(=O)c1cc(Cl)cc(Cl)c1 (stereo not drawn)
    6 | 2
> Cc1ccc(CNC(=O)c2c(C)noc2-c2ccc3c(c2)OCO3)o1
    7 | 18
> Cc1nccn1CCCC(=O)N1CCCC2(C1)C(=O)N(C)c1ccccc12 (stereo not drawn)
    4 | 0
> O=S(=O)(O)c1ccccc1Nc1ccnc(Nc2ccccc2S(=O)(=O)O)n1
    -1 | -1
> O=C(c1ccccc1F)N(Cc1nccn1Cc1ccc(F)cc1)C1CCCCC1
    0 | 12
> Cc1c(Cl)c([N+](=O)[O-])nn1CC(=O)Nc1ccc2c(c1)OCO2
    -3 | -9
> Cc1ccc(-n2nnnc2CNC(=O)COc2cccc3c2OC(C)(C)C3)cc1
    2 | 0
> CNC(=O)C1CCN(C(=O)Cc2ccccc2F)CC1
    0 | 2
> CCOC(=O)c1c(CSc2ccccc2)n(C)c2ccc(O)c(CN3CCN(C)CC3)c12
    -5 | -2
> COC1(OC)N=C(N)C2(C#N)C3C=CC(CC3)C12C#N (stereo not drawn)
    6 | -1
> COCC(NC(=O)COc1c(C)ccc(C)c1C)c1ccccn1 (stereo not drawn)
    -9 | -11
> O=C1C(=Cc2c3ccccc3cc3ccccc23)N=C2CCCCCN12
    15 | 5
> COc1ccc(CCOC(=O)C2CCCCN2C(=O)C(C)c2cccc(C(=O)c3ccccc3)c2)cc1OC (stereo not drawn)
    -4 | -9
> Cc1nonc1C1CCCN1Cc1ccc(C(=O)Nc2c(C)noc2C)cc1 (stereo not drawn)
    -8 | -8
> COC(=O)c1ccc(CN2C(=O)C(Cc3ccccc3)ON=C2c2cccc(F)c2)o1 (stereo not drawn)
    5 | 3
> COC(=O)C(N)CC(C)C (stereo not drawn)
    6 | 13
> COc1ccccc1-n1cc(-c2ccccc2)c2c(SC)ncnc21
    -1 | -1
> Cc1nn(C)c(C)c1NC(=O)c1ccnn1C
    8 | 7
> O=C(Nc1ccc(-c2cscn2)cc1)C1CCCN(C/C=C/c2ccccc2)C1 (stereo not drawn)
    7 | 3
> CC(c1cccc(Cl)c1)N(C)C(=O)Nc1ccccc1S(C)(=O)=O (stereo not drawn)
    1 | 0
> Fc1ccc(-c2nc3ccccc3n2-c2cc(-c3ccccc3)[nH]n2)cc1
    -6 | -10
> CCCCn1nc(C(=O)O)ccc1=O
    6 | 7
> CCc1c(C)nc2sc(C(N)=O)c(N)c2c1C
    10 | 7
> CC(=O)c1c(C)[nH]c(C(=O)COC(=O)c2cccn2C)c1C
    2 | 1
> O=C(O)CCC(=O)NNC(=O)c1ccncc1
    -1 | -4
> COc1cccc(-c2cc(C(=O)N3CCN(C(=O)C(C)(C)CCl)CC3)c(C)n2-c2ccccc2)c1
    -5 | 4

Complete entries from above. Values in the order: NPYLR7 agonist, NPYLR7 agonist max-min
CCCCn1nc(C(=O)O)ccc1=O as listed: 6, 7
Fc1ccc(-c2nc3ccccc3n2-c2cc(-c3ccccc3)[nH]n2)cc1 as listed: -6, -10

(more compounds)
The line under a structure holds: NPYLR7 agonist | NPYLR7 agonist max-min
> CNC(=O)c1nnc2n1C(c1ccccc1)CN(C(=O)c1ccc(C)cc1C)C2 (stereo not drawn)
    7 | 4
> O=C(Nc1nccs1)C1CC=CCC1 (stereo not drawn)
    0 | 0
> CC(C)C[C@@H](N)C(=O)NCc1n[nH]c2c1CCC2
    10 | 10
> O=C(CSc1nnc(-c2ccccc2)n1-c1ccccc1)N/N=C\c1c(O)ccc2ccccc12
    1 | 13
> O=C(c1cnn2c1NC(c1ccccc1)CC2C(F)(F)F)N1CCOCC1 (stereo not drawn)
    25 | 2
> Cc1cc(S(=O)(=O)Nc2ccccn2)c(C)cc1Cl
    7 | 4
> Cc1ccccc1-n1c(C)[n+](C)c2ccccc21
    7 | 20
> O=C1/C(=C/c2ccc(-c3ccc(Br)cc3)o2)C=C(c2ccccc2)N1c1cccnc1
    0 | 4
> Cc1cc(=O)oc2cc(OC(C)C(=O)N3CCn4cncc4C3)c(Cl)cc12 (stereo not drawn)
    27 | 12
> Cc1ccc(-c2nc3cc(C)ccn3c2NC(=O)C(Cl)Cl)cc1
    -14 | -10

Part of the list above, with each value named:
O=C(c1cnn2c1NC(c1ccccc1)CC2C(F)(F)F)N1CCOCC1 (stereo not drawn)
  NPYLR7 agonist: 25; NPYLR7 agonist max-min: 2
Cc1cc(S(=O)(=O)Nc2ccccn2)c(C)cc1Cl
  NPYLR7 agonist: 7; NPYLR7 agonist max-min: 4

The listing continues:
The line under a structure holds: NPYLR7 agonist | NPYLR7 agonist max-min
> O=S(=O)(Nc1ccccc1)c1ccc(NS(=O)(=O)c2cc(Cl)cc(Cl)c2)cc1
    3 | 8
> COCCNC(=O)c1ccc(OC2CCN(CC3CC=CCC3)CC2)c(Cl)c1 (stereo not drawn)
    -2 | -5
> O=S(=O)(c1cccnc1)N1CCCC(CCc2ccc(F)c(F)c2)C1 (stereo not drawn)
    17 | 6
> CC(O)c1nc2ccc(S(=O)(=O)c3ccc4nc(C(C)O)[nH]c4c3)cc2[nH]1 (stereo not drawn)
    16 | 7
> C=C(C)C(O)(C(=C)C)c1ccc(CN(Cc2cccc(OC)c2)CC2CCCO2)o1 (stereo not drawn)
    -2 | 1
> CC1CN(CC(O)CN2C(=O)C3CCCN3C2=O)CC(C)O1 (stereo not drawn)
    2 | 2
> CCCOC1CCCN(C(=O)COC)C1 (stereo not drawn)
    -4 | 2
> Cc1nn2c(=O)cc(CN(C)CC(=O)Nc3ccccc3C(F)(F)F)nc2s1
    -5 | -6
> Cc1ccnc(CC(C)N(C)C(=O)c2cc(CC(C)C)no2)c1 (stereo not drawn)
    -3 | -8
> O=S(=O)(CCc1ccccc1)NCC1CCN(Cc2ccsc2)CC1
    -10 | -11
> Cc1cccc(NC(=O)CN(CC2CCCO2)C(=O)c2cccc(S(C)(=O)=O)c2)c1C (stereo not drawn)
    8 | 2
> Cc1ccc(-n2c(-c3cccc(OCc4ccccc4)c3)nc3ccccc3c2=O)cc1
    0 | -3
> CCOC(=O)C1(Cc2cccc(C(F)(F)F)c2)CCN(Cc2ccc3nonc3c2)CC1
    -1 | 10
> CCc1nc2n(n1)C(=O)C(C(c1ccc(Br)cc1)N1CCC(C(=O)OC)CC1)S2 (stereo not drawn)
    -3 | 1
> CNc1cncc(-c2ccc(C(C)=O)s2)n1
    6 | 5
> COc1cn(CC(=O)Nc2ccc(C(F)(F)F)cc2)c(CSc2nc(C)cc(C)n2)cc1=O
    -3 | -9
> CC1(C)C2(C(=O)N3CCCN(Cc4cc(=O)c(OCc5cccc(F)c5)co4)CC3)CC[C@@]1(C)C(=O)O2
    7 | 2
> CC(COc1ccc(/C=C/c2ccccc2)cc1)[N+](C)(C)C (stereo not drawn)
    1 | 8
> Cc1cccc(-c2nc3c(NCc4ccc(N(C)C)cc4)nccc3[nH]2)c1
    -8 | -12
> CC(=O)Nc1ccc(-c2ccnc3c2CC(C)(C(=O)NC(C)C)O3)cc1 (stereo not drawn)
    -6 | 0

3 entries from above in a different format:
Structure	NPYLR7 agonist	NPYLR7 agonist max-min
CCc1nc2n(n1)C(=O)C(C(c1ccc(Br)cc1)N1CCC(C(=O)OC)CC1)S2 (stereo not drawn)	-3	1
CNc1cncc(-c2ccc(C(C)=O)s2)n1	6	5
COc1cn(CC(=O)Nc2ccc(C(F)(F)F)cc2)c(CSc2nc(C)cc(C)n2)cc1=O	-3	-9

(cont.)
The line under a structure holds: NPYLR7 agonist | NPYLR7 agonist max-min
> CCc1cc2c(=O)n(NC(=S)NC)cnc2s1
    -10 | -13
> CS(=O)(=O)N1CCN(C(=O)Cc2cc(=O)[nH]c(SCc3ccccc3)n2)CC1
    -5 | -8
> O=c1[nH]c(CSc2nnc(NC3CC3)s2)nc2ccsc12
    4 | 4
> COc1ccc(CC(=O)NC2(C)CCS(=O)(=O)C2)c(OC)c1OC (stereo not drawn)
    6 | 3
> Cc1nnsc1CNC(=O)Cc1c(C)nn(-c2ccccc2)c1C
    -6 | -6
> COc1ccc(NC(=O)COc2cncc(Br)c2)cc1
    1 | 0
> COc1cccc2ccc(-c3cc(NCCO)nc4[nH]ccc34)nc12
    21 | 2
> CNC(=O)[C@@H]1[C@@H](c2ccccc2)CN2CCN(Cc3ccco3)C[C@H]12
    8 | 15
> CCOc1ccccc1C=NNC(=O)c1cc(C2CC2)[nH]n1
    3 | 7
> CC(C)(C)OC(=O)NCCCC(CCCNC(=O)OC(C)(C)C)C(=O)O
    4 | 5
> C=CCn1c(SCc2cccc(C#N)c2)nnc1-c1ccc(OC)c(OC)c1
    19 | 11
> COc1ccc(C(=O)Nc2c(C)nc3ccccn3c2=O)c(OC)c1
    -6 | -6
> O=C(CSc1nnc(C2CC2)n1C1CC1)c1ccc(Br)s1
    -1 | 4
> CN(C)CC(C)(C)CNC(=O)c1c2c(nc3ccccc13)CCN(Cc1ccccn1)C2
    0 | 9
> O=C(c1cn(CC2CCCNC2)nn1)N1CCC2(CCCO2)CC1 (stereo not drawn)
    6 | 4
> CCCCCCOCCOCCOC(=O)N1CCC2(CC1)CC(=O)c1cc(F)ccc1O2
    -16 | -19
> CCC(C)N(Cc1ccc(OC)c(OS(=O)(=O)c2ccc(NC(C)=O)cc2)c1)C(=O)c1cccs1 (stereo not drawn)
    2 | 8
> Fc1ccc(-c2n[nH]c(=S)n2C2CCCCC2)cc1
    10 | 6
> Cc1cccnc1NC(=O)c1ccc(CN2CCCCC2)cc1
    -1 | -2
> COc1nccnc1N1CCC2(CC1)C(=O)N(C)c1ccccc12
    12 | 9
> Cc1ncsc1CN(Cc1ccccc1)C(=O)C1=NNC(=O)CC1
    -2 | -2
> Cc1ccc(CSc2n[nH]c(=O)c3cc(-c4cccs4)nn23)cc1
    -5 | -8
> CC1(C(=O)NCc2nc3ccccc3s2)CCCN(C(=O)c2ccccc2)C1 (stereo not drawn)
    5 | 4
> CCCCc1nc(CNCC2C[N+](C)(Cc3csc(CCCC)n3)CCO2)cs1 (stereo not drawn)
    -5 | -6
> CCc1nc2ccc(C(=O)NCCN3CCNC3=O)cn2c1N(C)C(=O)COc1ccccc1
    -6 | -11
> CC(C)c1cc(N2CCOCC2)nc(SCc2ccc(C(=O)NCc3ccncc3)o2)n1
    9 | 5
> O=C(CNC(=O)c1ccc(Cl)cc1)NCCN1C(=O)SC(=Cc2ccc(F)cc2)C1=O
    12 | 11
> CCN(CC)C(=O)C1CNc2ccccc2O1 (stereo not drawn)
    16 | 26
> COc1cc(Cc2nc(CSc3c(F)c(F)cc(F)c3F)cs2)ccc1Br
    6 | 10
> COc1ccc(S(=O)(=O)N2CCN(c3ccccc3C)CC2)c(C)c1C
    5 | -1
> O=C(Nc1nnc(N=Cc2ccc([N+](=O)[O-])s2)s1)c1ccc(S(=O)(=O)N2CCOCC2)cc1
    -4 | -10
> CCC(c1nc2ccccc2c(=O)n1-c1ccc(Br)cc1)N1CCN(C(=O)c2cccc(F)c2)C(C)C1 (stereo not drawn)
    1 | -5
> CCN(C)Cc1cccc(CNC(=O)C(NC(=O)c2ccco2)C(C)C)c1 (stereo not drawn)
    5 | 2
> CCC(CC)C(=O)N1C[C@H](OC)[C@H]2C[C@@H]1CC[C@H]2O
    23 | 26
> C=CCCC(O)(CCC=C)c1ccc(CN(Cc2ccc(C)o2)C2CC2)o1
    -8 | -1
> COc1ccc(-c2cnc(-c3cccc(CNC(=O)Cc4cccs4)c3)[nH]2)cc1
    2 | 14
> CCN1CCN(c2c(CN(CCOC)C(=O)COCc3ccccc3)c(C)nn2-c2cccc(F)c2)CC1
    6 | 14
